High-throughput results deposited in PubChem by Southern Research Institute.
total CFTR = compounds raising F508del-CFTR protein level – cell-based, HeLa F508del-CFTR, immunofluorescence, viability, primary screen (AID 1224863). 10,000 compounds, 0.1% hits. HeLa F508del-CFTR, immunofluorescence total CFTR, 24 h; by the record results were divided by relative cell number; some inactives read as strong as hits. calls, or highest fold increase where a dose series was run; in the data nearly all actives have a first-pass fold increase above 1.5; a few of its hits are not listed in these tables;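 note: total CFTR protein by anti-CFTR immunofluorescence in fixed cells; first pass at 25 µM or 10 µg/mL by library and series up to twice that; 1 = untreated cells; first-pass hits also needed half or more of the cells alive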
total CFTR fold 25 µM = also measured in total CFTR; calls as there; fold increase; measured here: primary screen single dose 25 uM; library dosed in µM
total CFTR viability 25 µM = also measured in total CFTR; calls as there; viability, %; measured here: primary viability 25 uM; library dosed in µM;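 0% = killed and 100% = untreated cells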
Active calls of the source: *; i = inactive.

SMILES	total CFTR	total CFTR fold 25 µM	total CFTR viability 25 µM
CC(C)C[C@H](CN)CC(=O)O	i	1.4	96

The list is partial (hit frequency here may not be typical).
